Compound activity: PubChem, ICCB-Longwood Screening Facility, Harvard Medical School
AID504770: E. coli YBA685 growth inhibition, screen for V. cholerae RctB inhibitors; E. coli YBA685 rctB-dependent plasmid, OD600 growth, 3 h; stronger effect = lower value; z-score (test concentration not listed); actives 0.27% (n = 130,000); AID 504770;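 active = z-score under -2 on both plates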;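 note: wells of about 30 µL received 100 nL stock; score is relative to mean and SD of the test wells; the first replicate is given; strong numbers were not always called active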
Ba CapD inh: inhibitors of Bacillus anthracis CapD enzyme. purified CapD enzyme, fluorescence intensity read-out; stronger effect = lower value; some hits fall short of the stated cut. actives 0.23% (n = 140,000). z-score (concentration not given with the values);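 active = z-score under -4 in either of two replicates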;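 note: stock transfer was 100 nL into about 40 µL; score is relative to mean and spread of the plate; one replicate is shown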
Starred values were filed as active, the others as inactive; x = not tested or not shown. Only part of the results is shown. The share of hits here may be higher or lower than overall.

Below each SMILES: AID504770 | Ba CapD inh
[1] O=c1[nH]c2cc(S(=O)(=O)CCO)ccc2o1
    -0.25 | -0.81
[2] CCOC(=O)c1cnc(N2CCCCC2)[nH]c1=O
    0.55 | x
[3] CCOC(=O)CSc1nnc(CNC(=O)c2cccs2)n1-c1ccccc1
    0.2 | 0.095
[4] C[N+](C)(C)Cc1ccccc1
    -0.6 | 4.4
[5] Cc1ccc(-n2ncc3c(Nc4ccc(Br)cc4)ncnc32)cc1
    x | -0.06
[6] O=C(Nc1nccs1)C1CC2CCC1C2 (stereo not drawn)
    0.5 | -0.39
[7] CCOC(=O)NC(=S)Nc1ccc(F)cc1
    1.5 | 0.29
[8] CCN1C(=O)NC(c2cc(Br)c(O)c(OC)c2)C(C(=O)OCCOC)=C1C (stereo not drawn)
    x | 0.075
[9] Cc1cc(Oc2nc3cc(Cl)ccc3s2)c2cc(Cl)ccc2n1
    2.1 | -2
[10] O=C1CN(S(=O)(=O)CCOc2ccccc2)CC(=O)N1CCc1ccccc1
    0.75 | 0.04
[11] C#CC(C)(C)N1CN=C(SC)NC1
    x | -0.49
[12] COc1cc2c(cc1OC)C(c1ccccc1F)OC(=O)C2 (stereo not drawn)
    0.3 | 0.54
[13] C=CCNC(=O)C1CC(=O)N(c2ccc(OCC(=O)Nc3ccc(F)cc3)cc2)C1 (stereo not drawn)
    3.5 | -0.31
[14] O/N=C/c1ccnc(SCc2ccc(Cl)cc2)n1
    0.95 | 9
[15] COC(=O)c1cc(C(=O)OC)cc(-n2c(C)ccc2C)c1
    0.25 | -0.055
[16] O=C(Cc1cccc2ccccc12)NCc1ccc(F)cc1
    -0.05 | 15
[17] COc1ccc(S(=O)(=O)Nc2ccc(F)cc2C)cc1OC
    0.05 | 0.23
[18] COc1ccc2ccccc2c1CN1CCN(S(=O)(=O)c2cc(Cl)sc2Cl)CC1
    x | -0.025
[19] CC(=O)C1=NN(c2cccc(Cl)c2C)C2(S1)c1ccccc1C(c1ccc(Cl)cc1)=NN2c1ccccc1 (stereo not drawn)
    x | -0.52
[20] Cc1ccc(F)cc1NC(=O)N1CCN(C2c3ccccc3-c3ccccc32)CC1
    -0.05 | 2.4
[21] Cc1nc2ccccc2nc1C(=O)NCCCN1CCN(c2ccccc2)CC1
    -0.3 | 0.07
[22] N#CC1=C(N)OC(C2CC2)=C(C#N)C1c1cccs1 (stereo not drawn)
    0.4 | 2.5
[23] CN(C)c1ccc(C(=O)OCC(=O)c2cccc(Cl)c2)cc1
    -0.4 | 2.8
[24] CC1CCN(CN2C(=O)C3(OCC(CO)([N+](=O)[O-])CO3)c3ccccc32)CC1 (stereo not drawn)
    x | -0.35
[25] CC(=C(C#N)C#N)c1ccccc1
    0.35 | 0.06
[26] CCCCOC(=O)C(CCCC)N1C(=O)C2C3c4ccccc4C(c4ccccc43)C2C1=O (stereo not drawn)
    x | -0.3
[27] N/C(=N\O)c1ccc(Oc2ccc(C(F)(F)F)cn2)cc1
    -0.15 | 0.33
[28] CCCCCC1CCC(c2ccc(NC(=O)c3ccc([N+](=O)[O-])cc3)cc2)CC1 (stereo not drawn)
    x | -0.36
[29] CCOc1ncccc1C(=O)NC(C)CCc1ccccc1 (stereo not drawn)
    -0.2 | x
[30] Cc1ccc2c(COC(=O)c3ccc(-n4cnnn4)cc3)cc(=O)oc2c1
    -0.35 | x
[31] CCCN1C(=O)c2ccccc2NC1c1ccc(OC)c(COc2ccc([N+](=O)[O-])cc2)c1 (stereo not drawn)
    x | 0.63
[32] O=C(C1c2ccccc2C(=O)N2CCCCC12)N1CCCCCC1 (stereo not drawn)
    0.1 | 16
[33] Cc1ccc2c(c1)C(C)(C)C1(/C=C/c3cccnc3)NC(=O)CCN21 (stereo not drawn)
    x | -0.055
[34] COc1ccc(-n2nc3cc(C)c(NC(=O)c4ccc5c(c4)OCO5)cc3n2)cc1
    0.25 | x
[35] CS(=O)(=O)c1cnc(-c2ccc(OCc3ccccc3)cc2)nc1-c1ccc(Cl)cc1
    x | -0.19
[36] CC(=O)NC1C(=O)NC(=S)N(c2ccccc2)C1=O (stereo not drawn)
    -0.75 | 3.1
[37] COc1ccccc1/C=C/C(=O)Nc1ccccc1C(=O)NCc1ccco1
    0.85 | x
[38] CC(=O)Nc1ccc(NC(C)=O)c(C(F)(F)F)c1
    -0.85 | -0.085
[39] N#Cc1cccc(NC(=O)CSc2ccccc2)c1
    -1.2 | 0.26
[40] Cc1cc(N)c(N)cc1C
    -0.2 | x
[41] COc1cc(C2Nc3ccc4ccccc4c3C3=C2C(=O)CC(C)(C)C3)cc(I)c1OCc1ccc(Cl)cc1 (stereo not drawn)
    x | 4
[42] CCOC(=O)/C(C#N)=C1\CCc2ccccc21
    1.6 | 0.33
[43] Cc1ccccc1Nc1cc(N2CCCC2)c2noc3c2c1C(=O)c1ccccc1-3
    x | -0.26
[44] CC12CCC(c3nnc(SCC(=O)Nc4cccc(C(F)(F)F)c4)nc31)C2(C)C (stereo not drawn)
    1.1 | 0.06
[45] CCOC(=O)c1c(C)n(OC)c2ccc3nonc3c12
    x | 3.9
[46] CN1/C(=C\C(=O)COC(=O)CCN2C(=O)C3CC=CCC3C2=O)C(C)(C)c2ccccc21 (stereo not drawn)
    0.4 | x
[47] Cc1cc(N)nn1C(=O)CSc1nc2cc(C(=O)NCCCOC(C)C)ccc2c(=O)n1Cc1ccco1
    x | -0.18
[48] COCCOc1ccc(C(F)(F)F)cc1NCC(=O)Nc1cccnc1Cl
    -0.45 | x
[49] Cc1cnc2c(c1)C(=Nc1cccc3ccccc13)c1cccc(C)c1-2
    x | 2.2
[50] CCOc1ccccc1N=C1SC(CC(=O)Nc2ccccc2)C(=O)N1Cc1ccco1 (stereo not drawn)
    0.4 | x
[51] COc1ccccc1CNC(=O)CC(c1ccccc1)(c1ccccc1)c1ccccc1
    x | -0.44
[52] N#Cc1c(N2CCOCC2)nc(N2CCOCC2)c2c1CCN(Cc1ccccc1)C2
    -0.25 | x
[53] Cc1[nH]nc2c1C1=C(C(=O)CCC1)C(c1ccc(N(C)C)cc1)N2 (stereo not drawn)
    -0.75 | -0.9
[54] FC(F)(F)c1cc(-c2cccs2)nc2nc(N3CCOCC3)sc12
    1.2 | x
[55] CCCOC(=O)Nc1ccc(Cl)cc1C(=O)c1ccccc1
    -0.45 | -1
[56] CC1(C)OC2COC3(COC(=O)N4CCC(C(O)(c5ccccc5)c5ccccc5)CC4)OC(C)(C)OC3C2O1 (stereo not drawn)
    x | -0.09
[57] COc1cc(OCc2ccccc2)ccc1CN1CCC(C(=O)c2ccc(F)cc2)CC1
    1.5 | -0.14
[58] COc1cc(OC)cc(-c2nc(-c3ccccc3)c(-c3cccc4ccccc34)[nH]2)c1
    x | -0.23
[59] N#CCCN1C(=O)C2(OCCO2)C2CCCCC21 (stereo not drawn)
    x | 0.02
[60] C=CCNC(=O)c1cc(=O)[nH]c(=O)[nH]1
    -0.5 | -0.34

A second format for part of the listing above:
(42) CCOC(=O)/C(C#N)=C1\CCc2ccccc21
- AID504770: 1.6
- Ba CapD inh: 0.33

(43) Cc1ccccc1Nc1cc(N2CCCC2)c2noc3c2c1C(=O)c1ccccc1-3
- AID504770: x
- Ba CapD inh: -0.26

(44) CC12CCC(c3nnc(SCC(=O)Nc4cccc(C(F)(F)F)c4)nc31)C2(C)C (stereo not drawn)
- AID504770: 1.1
- Ba CapD inh: 0.06

(45) CCOC(=O)c1c(C)n(OC)c2ccc3nonc3c12
- AID504770: x
- Ba CapD inh: 3.9

(listing goes on)
Below each SMILES: AID504770 | Ba CapD inh
[61] CC(=O)n1nc(-c2cccnc2)nc1N
    -0.1 | -0.08
[62] CCN(CC)S(=O)(=O)N1CCC(C(=O)NC2CCCc3ccccc32)CC1 (stereo not drawn)
    -0.15 | 0.67
[63] Cc1cc(=O)n2[nH]c(C(F)(F)F)c(-c3ccccc3)c2n1
    -0.4 | 34
[64] O=C(/C=C/c1ccccc1)Nc1cc(C(=O)N2CC=C(c3ccccc3)CC2)ccc1N1CC2CC(C1)c1cccc(=O)n1C2 (stereo not drawn)
    x | -0.72
[65] Cc1cc(C)c2cc(C(=O)N(C)C3CCN(C)CC3)[nH]c2c1
    -0.8 | 1.3
[66] FC(F)(F)c1cccc(Cc2cccc(C(F)(F)F)c2)c1
    x | 0.35
[67] N#CC1(NC(=O)COc2cccc(C(F)(F)F)c2)CCCCC1
    -0.5 | x
[68] O=C1CC(c2ccc(F)cc2)c2cc(Br)c3ccccc3c2N1 (stereo not drawn)
    x | 0.2
[69] O=C(NCCCN1CCOCC1)c1cc2n(n1)C(C(F)(F)F)CC(c1ccc(Cl)c(Cl)c1)N2 (stereo not drawn)
    x | -0.15
[70] COCCOC(=O)C1=C(N)OC2=C(C(=O)CC(C)(C)C2)C1c1ccc(Cl)cc1 (stereo not drawn)
    x | -0.38
[71] COc1ccc(CCNc2ncccc2C#N)cc1OC
    -0.25 | x
[72] CN(C)C(c1ccccc1)c1ccccc1
    -0.7 | -0.22
[73] FC(F)(F)c1nc(SCc2ccc(Cl)cc2)n[nH]1
    0.6 | 9
[74] COc1cc(-c2nc3sc4c(c3c(=O)[nH]2)CCCC4)cc(Cl)c1OCCOc1ccc(C)c(C)c1
    x | 1.1
[75] CN(C)C(=O)c1cc(Cl)ccc1Cl
    1.5 | 0.46
[76] C#CCOc1c(Cl)cccc1Cl
    x | -0.21
[77] COc1ccc(OC)c(S(=O)(=O)n2ccnc2C)c1
    -0.1 | 0
[78] COCCNC(=O)Cn1cnc2c(nc3n2CCCCC3)c1=O
    -1 | 0.61
[79] COc1ccc(C(=O)N2N=C(C(F)(F)F)CC2(O)c2ccc(F)cc2)cc1 (stereo not drawn)
    x | -0.62
[80] N#CCCSCc1ccc(C(=O)O)o1
    2.1 | x
[81] Cc1csc(SCC(=O)N2CCCC2)n1
    -1.2 | 0.04
[82] NNC(=S)Nc1ccccc1C(F)(F)F
    0.05 | x
[83] O=[N+]([O-])c1ccccc1SC1CC2C(c3ccccc3)Nc3ccc(Cl)cc3C2C1Cl (stereo not drawn)
    x | -0.31
[84] O=C1C2CCCN2C(c2ccccc2)N1c1ccc(Cl)cc1 (stereo not drawn)
    -0.75 | -0.42
[85] c1ccc(-c2nnc(-c3cccs3)o2)cc1
    0.55 | 31
[86] CC(C)(C)OC(=O)N1CCCC1COC(=O)NCCc1c[nH]c2ccc(Cl)cc12 (stereo not drawn)
    x | -0.78
[87] O=C(COC(=O)COc1ccc(Cl)cc1)NC1CCCCC1
    0 | 1.2
[88] O=C(CNCCC1=CCCCC1)Nc1ccc2[nH]c(=O)[nH]c2c1
    0.35 | x
[89] CC(=O)/C(N=Nc1cc2c(c([N+](=O)[O-])c1C)C(C)(C)CC2(C)C)=C(\C)O
    x | -1.9
[90] Cc1ccc(N2C(=O)CS/C2=N\C(=O)Nc2ccccc2)c(C)c1
    0.1 | x

Some of the entries so far, in transposed form:
#87 O=C(COC(=O)COc1ccc(Cl)cc1)NC1CCCCC1
#88 O=C(CNCCC1=CCCCC1)Nc1ccc2[nH]c(=O)[nH]c2c1

Screen / compound no.	87	88
AID504770	0	0.35
Ba CapD inh	1.2	x

The list goes on:
Below each SMILES: AID504770 | Ba CapD inh
[91] Cc1ccc(Cn2c(CO)cnc2SCC(=O)Nc2ccc3c(c2)OCO3)cc1
    0.75 | 0.14
[92] CC(C)C(=O)Nc1nnc(C2CC2)s1
    -0.1 | -0.17
[93] C=CCN(CC=C)Cc1cc(=O)n2c(-c3ccccc3)csc2n1
    0.1 | x
[94] CCn1c(SCC(=O)OCC(=O)N2c3ccccc3Sc3ccccc32)nnc1-c1ccco1
    -0.05 | x
[95] Cc1cc(NC(=O)c2coc3ccccc3c2=O)no1
    -0.65 | 0.52
[96] CCN(CC)C(=O)C1=CC(c2ccco2)=NS(=O)(=O)N1C
    0.25 | 5.6
[97] CS(=O)(=O)c1ccc(-n2cc(-c3ccccc3NC(=O)c3cc(Cl)nc(Cl)c3)cn2)cc1
    x | -0.55
[98] CCN(CC)CCn1c(=N)n(Cc2ccc(C(C)(C)C)cc2)c2ccccc21
    -0.85 | -0.52
[99] CCN(CC)C(=O)Cn1cc(/C=C(\C#N)C(=O)N2CCN(c3ccccc3)CC2)c2ccccc21
    -0.7 | x
[100] CC1=NN(c2cc(C)nc(-c3ccccc3O)n2)C(=O)C1
    -0.5 | -0.43
[101] C=CCOC(=O)C1=C(C)N=c2s/c(=C3\C(=O)N(C)c4ccccc43)c(=O)n2C1c1ccc(OC(=O)c2ccco2)cc1 (stereo not drawn)
    x | 0.42
[102] COC(=O)C1=C(C)NC2=C(C(=O)CC(c3ccc(Cl)cc3)C2)C1c1ccc(OC(C)=O)c(OC)c1 (stereo not drawn)
    x | 55
[103] O=C1CCC(=O)N1c1cc(C(F)(F)F)cc(C(F)(F)F)c1
    -0.5 | -0.23
[104] O=C(CSCc1ccccc1)Nc1ccc2c(c1)OCO2
    -0.45 | 0.14
[105] Cc1ccc(NC(=O)C(C)NC(=O)C(c2ccccc2)c2ccccc2)cc1C (stereo not drawn)
    -0.45 | 0.14
[106] CNC(=S)Nc1ccc(OC)c(OC)c1
    -0.5 | -0.43
[107] Cc1nc2ccccc2n1C(=O)CCCC(=O)O
    -0.5 | 0.28
[108] CC(COc1ccc(C(C)C)cc1)NS(=O)c1ccc2ccccc2c1 (stereo not drawn)
    0.55 | x
[109] C=CCOc1cccc(C2c3c(oc4ccc(F)cc4c3=O)C(=O)N2CCOC)c1 (stereo not drawn)
    0.75 | -0.48
[110] COc1ccccc1-n1c2nc3ccccc3nc2c2c(=O)n(C3CCCC3)cnc21
    -0.25 | 2
[111] Cc1nc2cc(C(=O)OC(C)C(=O)N3CCOCC3)ccc2n1-c1ccccc1 (stereo not drawn)
    -0.15 | x
[112] CNC(=S)N/N=C(\C)c1ccccc1OC
    1.7 | x
